Compound activity from PubChem.
RanGTP-Impb inh – inhibitors of RanGTP-importin-beta interaction, primary screen, biochemical, FRET, CFP-Ran, YFP-importin-beta, homogeneous. inhibition, % (test concentration not listed). 300,000 compounds, 1.1% hits. cell-free CFP-Ran/YFP-importin-beta FRET ratio;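 active = most replicates above 15%; inconclusive = exactly half above 15%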;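 note: 0% = DMSO wells and 100% = Ran loaded with GDP instead of GTP; wells of about 40 µL received 100 nL stock; the first replicate is given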
Calb FLC – C. albicans growth modulation with fluconazole | C. albicans CaCi-2 (fluconazole-resistant clinical isolate) + fluconazole, Alamar Blue growth, 48 h | growth inhibition, % (test concentration not listed) | 300,000 compounds, 0.57% hits | AID 1979;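 active = most replicates above 75%; inconclusive = exactly half above 75%; inactive = most below 75%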;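 note: all wells also contain fluconazole at 8 µg/ml as a sub-toxic cotreatment; 0% = median of DMSO wells and 100% = median of geldanamycin control wells; wells of about 8 µL received 7.5 nL stock; the first replicate is given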
ALR H2O2 inh – inhibitors of human sulfhydryl oxidase ALR; P55789; purified ALR, DTT oxidation, H2O2 HRP-luminol luminescence; inhibition, % (concentration not given with the values); 290,000 compounds, 3.8% hits;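 active = mean and each replicate at 75% or more; inconclusive = only one of the two met; inactive = neither met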;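 note: stock transfer was 7.5 nL into about 7.5 µL; 0% = neutral wells and 100% = wells with inactivated enzyme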
Target sequence (P55789 whole entry, looked up): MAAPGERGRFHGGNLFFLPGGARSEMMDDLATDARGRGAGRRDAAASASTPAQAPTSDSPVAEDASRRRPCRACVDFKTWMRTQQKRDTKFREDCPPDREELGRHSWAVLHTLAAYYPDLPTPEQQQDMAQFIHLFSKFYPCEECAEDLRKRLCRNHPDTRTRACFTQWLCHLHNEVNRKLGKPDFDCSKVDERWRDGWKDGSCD
HNF4A DNA FP – change in binding of human HNF4 alpha to DNA; activity change, % at 10 µM; HNF4a-FITC DNA binding, fluorescence polarization, 1 h; AID 1224865; 360,000 compounds, 0.3% hits; in the data active = activity change above about 30%, passing the limit was not always enough;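 note: controls were the assay level and a saturating level of protein; the project sought stronger binding though the title names inhibitors; some compounds called inactive have numbers as strong as hits; positive values seem to mean higher polarization but the record does not say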
Vif A3G – inhibitors of Vif binding to APOBEC3G peptide, primary screen, biochemical, TR-FRET, GST-Vif 1-94, biotin-A3G peptide, dose response retest (AID 1117319). inhibition, %, or IC50 in µM where a hit was titrated. TR-FRET GST-Vif / biotin-A3G peptide binding; higher % means a stronger effect; test concentration not given here; strong numbers were not always called active. 260,000 compounds, 0.57% hits;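 active = above the screen mean plus three standard deviations and confirmed in dose response; inconclusive = results disagree or hit not tested in dose response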;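 note: Vif residues 1-94 fused to GST binding biotinylated APOBEC3G peptide 110-148; 0% = full assay without inhibitor and 100% = GST in place of GST-Vif; retest series ran down from 100 µM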
B2AR ag – human beta-2 adrenergic receptor agonism by FAP; P07550; Am2.2-beta2AR cells, FAP receptor internalization, flow cytometry; reference of the scale not given here; response, % (concentration not given with the values); 340,000 compounds, 0.43% hits;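 active = response above a set limit, near 3 SD of response in nonfluorescent compounds, cut at about 42% in these data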;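 note: stock transfer was 100 nL into about 11 µL; a reference agonist was the positive control; negative values mostly stem from fluorescent compounds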
Target sequence (P07550 whole entry, looked up): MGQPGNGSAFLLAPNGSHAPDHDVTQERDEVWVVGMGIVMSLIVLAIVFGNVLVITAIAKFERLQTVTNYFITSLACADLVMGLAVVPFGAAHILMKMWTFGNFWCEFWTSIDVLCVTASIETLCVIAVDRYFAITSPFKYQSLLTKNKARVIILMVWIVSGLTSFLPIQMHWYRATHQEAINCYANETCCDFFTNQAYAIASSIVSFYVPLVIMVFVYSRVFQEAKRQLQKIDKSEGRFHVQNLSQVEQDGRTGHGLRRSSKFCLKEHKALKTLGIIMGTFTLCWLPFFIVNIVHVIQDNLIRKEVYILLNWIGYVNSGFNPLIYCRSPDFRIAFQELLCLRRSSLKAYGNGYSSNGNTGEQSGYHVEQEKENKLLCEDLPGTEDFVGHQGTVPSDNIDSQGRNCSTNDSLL
LANA-H2B inh – blocks KSHV LANA binding to histone H2A/H2B; Q9QR71; 320,000 compounds, 0.6% hits; cell-free LANA-H2A/H2B peptide, fluorescence polarization; inhibition, % (test concentration not listed); in the data active = inhibition mostly above about 10%, no sharp cut-off; inactive = mostly below about 6.7%;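 note: stock transfer was 7.5 nL into about 10 µL; 0% = median of vehicle wells and 100% = median of positive control wells; one replicate is shown; the record names a cut of 25% in any replicate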
An asterisk follows results filed as active; ? = inconclusive; . = no result given.

entry | Structure | RanGTP-Impb inh | LANA-H2B inh | Vif A3G | Calb FLC | ALR H2O2 inh | HNF4A DNA FP | B2AR ag
1 | Cc1ccc(NC(=O)Cn2c(/C=C/c3ccccc3)nc3ccccc32)cc1C | 0.9 | 7.8 | 7% | -22 | . | 1.9 | -6
2 | CC(C)CCNC(=O)C(C)N(C(=O)c1snc(C(N)=O)c1N)c1cnc2ccccc2c1 (centres undefined) | -0.5 | 2.4 | . | 0 | 0 | 4.0 | -8
3 | O=C(O)CC(NS(=O)(=O)c1cccc2nsnc12)c1ccc(F)cc1 (centres undefined) | 0.5 | 0.6 | 3% | -1 | -12 | 1.4 | 1
4 | O=C(NC1CC1)C1=C[C@H](c2coc3ccccc3c2=O)C[C@H](OCc2ccc(CO)cc2)O1 | -4.1 | -0.6 | . | 12 | -27 | 1.5 | -10
5 | O=C(CS(=O)(=O)c1ccccc1)N1CCN(c2ccccc2)CC1 | 1.5 | -4.5 | -1% | 2 | . | -4.5 | -5
6 | Cc1noc(C)c1COc1ccc(C(=O)N(C)CCOc2ccccc2)cc1 | . | -0.4 | 0% | . | -6 | -3.6 | -3
7 | COc1ccc(CCN2C(=O)NC(NS(=O)(=O)c3ccc(N)cc3)(C(F)(F)F)C2=O)cc1OC (centres undefined) | 2.8 | 3.7 | . | 2 | -22 | 0.8 | -3
8 | COc1ccc(N2CCN(c3ncnc4scc(-c5ccc(F)cc5)c34)CC2)cc1 | -3.2 | 1.9 | 7% | 14 | 8 | 7.8 | -10
9 | Cc1cc(C)n(-c2cccc(Cl)c2)c(=O)c1C#N | -4.1 | 3.4 | 16% | 3 | -4 | 1.5 | -3
10 | Cc1cc(C)nc(N/N=C/C2=C(N3CCOCC3)C(=C/c3ccccc3)/CC2)n1 | -8.6 | -5.2 | ? | 0 | 27 | -0.6 | 23
11 | COc1ccc(-c2cc(=O)oc3c(C)c(OCC(=O)Nc4cccnc4)ccc23)cc1 | -3.5 | -5.2 | . | 1 | -3 | 18 | 2
12 | CC(=O)c1ccc(OCC(O)CN2C(C)(C)CC(O)CC2(C)C)cc1 (centres undefined) | -4.6 | -1.3 | 11% | 1 | . | 3.0 | -1
13 | CN(C)c1ccc(CNS(=O)(=O)c2csc(C(N)=O)c2)cc1 | 2.3 | -3.5 | . | 0 | 93* | 5.1 | -1
14 | N#Cc1ccc(NC(=O)COC(=O)CCNS(=O)(=O)c2ccccc2)cc1 | ? | -4.4 | 9% | 5 | -17 | -1.9 | 1
15 | CCOC(=O)c1ccccc1NC(=O)CCNC(=O)Cn1cnc2ccccc2c1=O | -4.6 | 1.5 | -4% | -1 | 3 | -0.3 | -7
16 | COc1c(C)cc(C(=O)C2CCCN(Cc3c(C)n(C)n(-c4ccccc4)c3=O)C2)cc1C (centres undefined) | 1.5 | -0.9 | . | 3 | -14 | 3.4 | -4
17 | O=C(COC(=O)/C=C/c1ccc(OC(F)F)cc1)NC1CCCCCC1 | . | 1.4 | 4% | . | -2 | 1.3 | 1
18 | Cc1ccc(Cn2c(CCNc3nc(-c4ccc(C)cc4)cs3)nc3cc(C(=O)NCCCO)ccc32)cc1 | 1.3 | -1.5 | . | 30 | 1 | 8.4 | 14
19 | COc1cc(/C=N/NC(=O)C(=O)N2CCCCCC2)ccc1O | 5.0 | -2.7 | -11% | -4 | 99* | -1.3 | 1
20 | CCCCNC(=O)c1ccc(NS(=O)(=O)c2ccc3[nH]c(=O)[nH]c3c2)cc1 | -0.6 | -0.1 | . | -2 | -1 | 1.1 | 1
21 | COc1ccc(CN(Cc2ccc(C(=O)O)cc2)C(=S)Nc2ccccc2F)cc1OC | -2.4 | 1.9 | 8% | 26 | 5 | 0.6 | 8
22 | CC(=O)SC1CC(=O)N(c2c(C)cccc2C)C1=O (centres undefined) | 2.6 | 0.0 | -8% | 2 | . | -3.5 | 1
23 | Cc1ccc(S(=O)(=O)n2nnc3ccccc32)c(C)c1C | 0.0 | 4.5 | ? | -7 | -1 | -4.1 | 7
24 | COc1cccc(-c2nnc(NC(=O)c3ccc(S(=O)(=O)N(CC(C)C)CC(C)C)cc3)o2)c1 | . | -0.5 | -3% | . | 1 | 1.7 | 5
25 | Fc1ccc(CNC(=S)Nc2ccccc2F)cc1 | ? | 0.5 | 11% | -11 | 0 | -8.8 | -19
26 | COc1ccc(S(=O)(=O)N(CC(=O)Nc2ccc(S(=O)(=O)N3CCOCC3)cc2)Cc2ccc(F)cc2)cc1 | -1.2 | 5.9 | . | 6 | 22 | 1.6 | -3
27 | O=C(N/N=C\c1ccc[nH]1)c1cncc(Br)c1 | -1.4 | -2.2 | . | -11 | -4 | 0.1 | 14
28 | COc1ccc(N2C(=O)C(F)(F)C2c2cccc(F)c2)cc1 (centres undefined) | ? | -0.7 | -14% | 8 | -7 | -1.0 | 13
29 | COc1ccc(OC)c(S(=O)(=O)n2nc(-c3ccccc3)cc2N)c1 | -0.7 | 1.8 | 0% | -1 | -6 | -2.4 | -3
30 | O=C(Cc1ccc(Cl)cc1Cl)Nc1ccncc1 | 1.6 | 0.9 | . | 8 | 3 | 1.7 | 1

Four of the entries above in order of the ALR H2O2 inh value, descending:
No. | Structure | RanGTP-Impb inh | LANA-H2B inh | Vif A3G | ALR H2O2 inh | HNF4A DNA FP | B2AR ag
21 | COc1ccc(CN(Cc2ccc(C(=O)O)cc2)C(=S)Nc2ccccc2F)cc1OC | -2.4 | 1.9 | 8% | 5 | 0.6 | 8
25 | Fc1ccc(CNC(=S)Nc2ccccc2F)cc1 | ? | 0.5 | 11% | 0 | -8.8 | -19
11 | COc1ccc(-c2cc(=O)oc3c(C)c(OCC(=O)Nc4cccnc4)ccc23)cc1 | -3.5 | -5.2 | . | -3 | 18 | 2
16 | COc1c(C)cc(C(=O)C2CCCN(Cc3c(C)n(C)n(-c4ccccc4)c3=O)C2)cc1C (centres undefined) | 1.5 | -0.9 | . | -14 | 3.4 | -4

In another format: entries from further up.
21: COc1ccc(CN(Cc2ccc(C(=O)O)cc2)C(=S)Nc2ccccc2F)cc1OC
- RanGTP-Impb inh: -2.4
- LANA-H2B inh: 1.9
- Vif A3G: 8%
- Calb FLC: 26
- ALR H2O2 inh: 5
- HNF4A DNA FP: 0.6
- B2AR ag: 8
8: COc1ccc(N2CCN(c3ncnc4scc(-c5ccc(F)cc5)c34)CC2)cc1
- RanGTP-Impb inh: -3.2
- LANA-H2B inh: 1.9
- Vif A3G: 7%
- Calb FLC: 14
- ALR H2O2 inh: 8
- HNF4A DNA FP: 7.8
- B2AR ag: -10

(listing goes on)
entry | Structure | RanGTP-Impb inh | LANA-H2B inh | Vif A3G | Calb FLC | ALR H2O2 inh | HNF4A DNA FP | B2AR ag
31 | CC(C)CNC(=O)COC(=O)c1c2c(nc3ccccc13)/C(=C\c1cccs1)CC2 | . | . | 0% | . | . | 15 | -5
32 | CCOC(=O)c1sc(NC(=O)c2ccc(S(=O)(=O)N3CCOCC3)cc2)nc1-c1ccccc1 | -4.3 | -1.6 | . | 21 | 0 | -0.3 | 32
33 | O=C(C[n+]1cccc(CNC(=O)c2ccc(OC(F)F)cc2)c1)Nc1ccccc1Cl | 0.0 | 0.4 | -4% | -12 | -9 | 0.0 | 1
34 | CCOC(=O)c1c(NC(=O)Cn2c(C)nc3ccccc32)sc2c1CCC2 | -0.7 | 3.7 | -24% | 15 | . | -4.0 | 4
35 | COc1ccc(/C=N/NC(=O)c2ccccc2Cl)cc1CSc1nc2ccccc2s1 | -3.8 | 4.3 | -1% | 26 | -10 | 2.3 | 15
36 | Cc1cc(-c2ccccc2)n(-c2ccccc2)n1 | -2.6 | 3.7 | 3% | 8 | . | 2.9 | -11

From compound 32 up to 36, as listed above:
entry | Structure | RanGTP-Impb inh | LANA-H2B inh | Vif A3G | Calb FLC | ALR H2O2 inh | HNF4A DNA FP | B2AR ag
32 | CCOC(=O)c1sc(NC(=O)c2ccc(S(=O)(=O)N3CCOCC3)cc2)nc1-c1ccccc1 | -4.3 | -1.6 | . | 21 | 0 | -0.3 | 32
33 | O=C(C[n+]1cccc(CNC(=O)c2ccc(OC(F)F)cc2)c1)Nc1ccccc1Cl | 0.0 | 0.4 | -4% | -12 | -9 | 0.0 | 1
34 | CCOC(=O)c1c(NC(=O)Cn2c(C)nc3ccccc32)sc2c1CCC2 | -0.7 | 3.7 | -24% | 15 | . | -4.0 | 4
35 | COc1ccc(/C=N/NC(=O)c2ccccc2Cl)cc1CSc1nc2ccccc2s1 | -3.8 | 4.3 | -1% | 26 | -10 | 2.3 | 15
36 | Cc1cc(-c2ccccc2)n(-c2ccccc2)n1 | -2.6 | 3.7 | 3% | 8 | . | 2.9 | -11
